hNpr1 antagonist – antagonists of human natriuretic peptide receptor Npr1; P16066; hit rate 1.6% among 76,000; HEK293 hNpr1 GloSensor cGMP, ANP-stimulated luminescence; Potency, µM (highest dose often 46.3 µM), inactives show at the highest dose activity change, negative = inhibition, hits mostly inhibitors; active = well fitted inhibition curve with a large enough effect; inconclusive = small, poorly fitted or top-dose-only effect; inactive = no such curve, though single readings can be large or run the other way;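 note: nearly all actives have a fitted effect of over 60% in size; nearly all hits also lower the signal before the agonist is added; a reference antagonist and vehicle were the controls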
Target sequence (P16066 whole entry, looked up): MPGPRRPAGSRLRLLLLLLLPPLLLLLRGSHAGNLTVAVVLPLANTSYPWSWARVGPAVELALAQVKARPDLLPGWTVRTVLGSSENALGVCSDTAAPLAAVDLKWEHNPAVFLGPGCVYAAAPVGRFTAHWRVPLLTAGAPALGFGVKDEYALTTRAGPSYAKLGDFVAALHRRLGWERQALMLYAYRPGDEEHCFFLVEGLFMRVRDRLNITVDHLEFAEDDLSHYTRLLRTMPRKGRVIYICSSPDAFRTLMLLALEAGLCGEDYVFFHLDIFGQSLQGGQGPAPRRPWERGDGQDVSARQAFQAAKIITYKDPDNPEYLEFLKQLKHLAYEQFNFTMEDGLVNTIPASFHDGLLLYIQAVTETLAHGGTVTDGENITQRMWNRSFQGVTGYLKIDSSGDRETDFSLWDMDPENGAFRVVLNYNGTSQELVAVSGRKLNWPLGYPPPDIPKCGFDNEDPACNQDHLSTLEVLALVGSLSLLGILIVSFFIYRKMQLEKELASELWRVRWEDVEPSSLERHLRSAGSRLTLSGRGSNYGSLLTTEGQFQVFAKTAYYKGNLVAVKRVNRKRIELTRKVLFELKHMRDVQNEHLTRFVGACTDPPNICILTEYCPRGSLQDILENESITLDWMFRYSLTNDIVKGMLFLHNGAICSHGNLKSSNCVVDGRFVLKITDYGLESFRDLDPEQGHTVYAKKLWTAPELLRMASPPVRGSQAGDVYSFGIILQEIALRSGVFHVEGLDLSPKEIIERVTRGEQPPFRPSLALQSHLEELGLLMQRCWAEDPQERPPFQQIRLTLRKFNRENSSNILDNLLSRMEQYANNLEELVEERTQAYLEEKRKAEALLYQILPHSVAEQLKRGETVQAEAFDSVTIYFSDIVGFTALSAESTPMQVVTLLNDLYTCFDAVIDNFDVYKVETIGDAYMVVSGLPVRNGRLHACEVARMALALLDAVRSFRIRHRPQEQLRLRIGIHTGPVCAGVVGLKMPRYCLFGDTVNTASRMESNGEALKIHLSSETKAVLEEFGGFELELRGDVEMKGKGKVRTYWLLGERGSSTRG
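HEK293 cells stably expressing human Npr1 and cGMP GloSensor pGS-40F, loaded 2 h with 2% GloSensor reagent, given compound 30 min at room temperature. Luminescence read before and 20 min after 0.1 nM hNppA.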
The depositor's hits bear a star; [ ] = remark or other dose. % is set by controls: 0 for no effect and ±100 for the full control effect; potency is the fitted concentration of half-maximal effect.

Results for O=C(c1cc2cc(F)ccc2[nH]1)N1CCC(CO)(CCCc2ccccc2)CC1 ?
hNpr1 antagonist: -15%

How did COCc1cc(=O)n(CC(=O)Nc2ccc(C)c(C)c2)c(N2CCOCC2)n1 do in these assays?
hNpr1 antagonist: -10%

What do the screens show for `CN(CC1CCOC1)C(=O)Nc1ccc(C(F)(F)F)cc1` (stereo not drawn)?
hNpr1 antagonist: -5%

How did COC(=O)CNC(=O)c1nc(-c2cccnc2)c2ccccn12 do in these assays?
hNpr1 antagonist: 0%[70.6 µM]

What do the screens show for `O=C(Nc1ccccc1)N1CCc2nc(-c3ccccc3)nc(-c3ccc(Cl)cc3)c2C1`?
hNpr1 antagonist: -8%

What do the screens show for `O=C(CN1C(=O)NC2(CCCCC2)C1=O)N1CCN(c2ccc(F)cc2)CC1`?
hNpr1 antagonist: -24%

What do the screens show for `CCn1ccc(C(=O)N2CCCCCNC(=O)[C@H]3C[C@H](C(=O)N4CCc5ccccc5C4)C[C@H]32)n1`?
hNpr1 antagonist: -13%

How did O=C1[C@H]2CN(Cc3ccc(F)cc3Cl)C[C@H]2C(=O)N1Cc1ccc2c(c1)OCO2 do in these assays?
hNpr1 antagonist: -4%

Results for Cc1cc(N2CCC(NCc3cc(C)nn3C)CC2)nc(-c2ccccc2)n1 ?
hNpr1 antagonist: -4%

Results for O=c1n(CCn2cccc2)nc(C2CCCNC2)n1-c1ccccc1 (stereo not drawn) ?
hNpr1 antagonist: 5%

Results for Cc1cccc(CN2CCc3nc(N4CCN(C)CC4)[nH]c(=O)c3CC2)c1 ?
hNpr1 antagonist: 2%

What do the screens show for `CCN(C)C(=O)Cn1c(Cc2ccccc2)nn(-c2ccccc2OC)c1=O`?
hNpr1 antagonist: 4%

What do the screens show for `COCC(=O)NC1CCN(c2ccccc2)C1=O` (stereo not drawn)?
hNpr1 antagonist: -1%

Results for O=C(NCc1csc(-c2cnccn2)n1)C1CNCCO1 (stereo not drawn) ?
hNpr1 antagonist: 4%

What do the screens show for `COc1cccc(-c2cc(-c3nc(C4CCOC4)no3)[nH]n2)c1` (stereo not drawn)?
hNpr1 antagonist: -1%

What do the screens show for `Cc1ncc(S(C)(=O)=O)c(NCCCNc2cccnc2)n1`?
hNpr1 antagonist: 3%

How did Cc1ccc(-c2cc(N3CCCN(C(=O)CCc4ccccc4)CC3)n[nH]2)cc1C do in these assays?
hNpr1 antagonist: inconclusive

Results for C[S+](=O)([O-])N1CCC(Cn2ccc3c(N4CCOCC4)nc(-c4cccc(O)c4)cc32)CC1 ?
hNpr1 antagonist: 1%

What do the screens show for `O=C(N[C@@H]1CN(Cc2ccncc2F)C[C@H]1CO)C1CC1`?
hNpr1 antagonist: -1%

What do the screens show for `CN1CCN(C(=O)c2ccc3nccn3c2)CC1`?
hNpr1 antagonist: 6%[70.6 µM]

How did CNc1nc2c(c(C(=O)N3CCCC3)n1)CN(S(=O)(=O)C1CC1)CC2 do in these assays?
hNpr1 antagonist: 2%

How did CNC(=O)c1cc[nH]c1C1CCCN(C(=O)Cc2cccnc2)C1 (stereo not drawn) do in these assays?
hNpr1 antagonist: 1%

How did COCc1nc2nc(-c3ccccc3)c(-c3ccccc3OC)cc2n1C do in these assays?
hNpr1 antagonist: inconclusive

How did CCc1nc(-c2c3n(c(=O)n(Cc4ccc(Cl)cc4)c2=O)CCCC3)no1 do in these assays?
hNpr1 antagonist: 4%

What do the screens show for `Cc1cnc(C2CC2)n1C1CCN(C(=O)NC(C)C)CC1`?
hNpr1 antagonist: 7%

Results for CCCNC(=O)CCc1ccnc(N2CCCC2)c1 ?
hNpr1 antagonist: -1%

How did Cc1ccc2c(c1)nc1n2[C@@H](CNCc2ccc(S(C)(=O)=O)cc2)COC1 do in these assays?
hNpr1 antagonist: 1%[70.6 µM]

What do the screens show for `O=C(Cn1cccc1-c1nc(-c2ccc(F)cc2)no1)NCc1ccc(Cl)cc1`?
hNpr1 antagonist: 5%

Results for Cc1ccc([C@@H]2CN(C(=O)c3cn(CCN)nn3)C[C@H]2NC(=O)C2CC2)cc1 ?
hNpr1 antagonist: 3%

Results for CCCC1c2nccn2CCCN1C(=O)c1cocn1 (stereo not drawn) ?
hNpr1 antagonist: -4%

What do the screens show for `COc1cccc(CN2C[C@@H](CO)[C@H](C3CCN(C(C)=O)CC3)C2)c1`?
hNpr1 antagonist: -1%

Results for Cc1ncsc1CN1C[C@@H]2C(=O)N(CCCN3CCCC3=O)C(=O)[C@@H]2C1 ?
hNpr1 antagonist: -12%

Results for COc1ccc(CC(=O)N2CC(CO)C3(CCNCC3)C2)cc1 (stereo not drawn) ?
hNpr1 antagonist: 2%

Results for CCOc1cc(=O)n2c(c1C(=O)Nc1cc(OC)c(Cl)cc1OC)CCCC2 ?
hNpr1 antagonist: -8%

What do the screens show for `Cn1cc(Cl)c(C(=O)N2CCOC(c3ccc(Cl)c(Cl)c3)C2)n1` (stereo not drawn)?
hNpr1 antagonist: inconclusive

How did CCCN(CC1CCOC1)C(=O)Nc1ccccc1OCC (stereo not drawn) do in these assays?
hNpr1 antagonist: 3%

How did CCC(=O)N(C1CCOCC1)C1CCN(Cc2cc(F)ccc2F)CC1 do in these assays?
hNpr1 antagonist: 2%

How did Cc1ccc(S(=O)(=O)NC[C@H]2OC[C@@H](NCc3ccncc3)[C@@H]2O)cc1 do in these assays?
hNpr1 antagonist: -1%[70.6 µM]

What do the screens show for `Cc1oc(-c2cccc(Cl)c2)nc1CN1CCCC(C(N)=O)C1` (stereo not drawn)?
hNpr1 antagonist: -1%

How did CS(=O)(=O)N1CCc2ccc(C(=O)NCCN3CCc4ccccc4C3)cc21 do in these assays?
hNpr1 antagonist: -1%

Reprinted at random: three compounds from above, in no set order.
How did CS(=O)(=O)N1CCc2ccc(C(=O)NCCN3CCc4ccccc4C3)cc21 do in these assays?
hNpr1 antagonist: -1%

How did CCC(=O)N(C1CCOCC1)C1CCN(Cc2cc(F)ccc2F)CC1 do in these assays?
hNpr1 antagonist: 2%

How did Cc1ccc2c(c1)nc1n2[C@@H](CNCc2ccc(S(C)(=O)=O)cc2)COC1 do in these assays?
hNpr1 antagonist: 1%[70.6 µM]

Additional compounds
Results for Cc1ccc(N2CC(C)N(C(=O)c3cccc(OC(F)F)c3)CC2=O)cc1 (stereo not drawn) ?
hNpr1 antagonist: 3%

How did O=C(N[C@H]1CCN2C(=O)c3ccccc3NC(=O)[C@H]12)C1CCCC1 do in these assays?
hNpr1 antagonist: 2%[70.6 µM]

How did Cc1ccc2nc3n(c2c1)[C@@H](CNC(=O)CCC(=O)O)COC3 do in these assays?
hNpr1 antagonist: -1%[70.6 µM]

How did CCN(C(=O)c1ccc2c(c1)N(S(C)(=O)=O)CC2)c1ccccc1C do in these assays?
hNpr1 antagonist: -8%

Results for CC(C)(O)CCc1cccc(C(=O)NCCOc2cccc3cccnc23)c1 ?
hNpr1 antagonist: 3%

What do the screens show for `CCCc1nc(C(=O)NC2CC(c3cc(N4CCOCC4)ncn3)C2)cs1` (stereo not drawn)?
hNpr1 antagonist: -7%

What do the screens show for `O=C(c1ccc(OC2CCN(C(=O)c3ccccc3)CC2)nc1)N1CCOCC1`?
hNpr1 antagonist: -9%

How did COCCNC(=O)[C@@H]1C[C@H](Oc2cccnc2)CN1C(=O)c1cc(-c2ccc(C)cc2)n[nH]1 do in these assays?
hNpr1 antagonist: 0%

How did CCN1c2cc(C(=O)Nc3ccc(F)c(C)c3)ccc2C(=O)N2CCCCCC21 (stereo not drawn) do in these assays?
hNpr1 antagonist: -18%

What do the screens show for `CC(C)N1C(=O)CO[C@H]2CCN(Cc3cccc(C#N)c3)CC[C@@H]21`?
hNpr1 antagonist: -30%[70.6 µM]

What do the screens show for `Cc1ccc(CNC(=O)CC2CCCN(c3cnn(CC4CC4)c(=O)c3)C2)cc1C` (stereo not drawn)?
hNpr1 antagonist: 0%

What do the screens show for `COCCNC(=O)[C@@H]1C[C@H](Oc2cccnc2)CN1C(=O)c1sc(C)nc1C`?
hNpr1 antagonist: 10%

How did Cc1n[nH]c(C)c1CNC(=O)c1ccc(N2CC3CC(C2)[C@H]2CCCC(=O)N2C3)nc1 (stereo partly drawn) do in these assays?
hNpr1 antagonist: 2%

What do the screens show for `Cc1cc(C(=O)Nc2ccc([C@H]3OCC(=O)N(CC(=O)N(C)C)[C@@H]3CO)cc2)no1`?
hNpr1 antagonist: 1%[70.6 µM]

Results for CCOC(=O)C1=CN(CC(=O)Nc2ccc(C)cc2)S(=O)(=O)N=C1C ?
hNpr1 antagonist: 6%

How did CCOc1ccc(C2Cn3nnc(-c4nc(-c5ccccc5Cl)no4)c3CO2)cc1 (stereo not drawn) do in these assays?
hNpr1 antagonist: -11%

Results for O=C(c1ccc2[nH]ccc2c1)N1CCC(N2C(=O)C3(CCCCC3)C2c2ccncc2)CC1 (stereo not drawn) ?
hNpr1 antagonist: 5%

Results for CC(=O)Nc1ccc(CC(=O)N2CCc3c(c(-c4nncn4C)nn3C)C2)cc1 ?
hNpr1 antagonist: 6%

Results for COCC(=O)N[C@H]1C[C@@H](CO)N(Cc2cc(F)ccc2F)C1 ?
hNpr1 antagonist: -2%

How did COc1ccc(-c2cc(C(=O)NCc3c(C)cc(C)[nH]c3=O)c3c(c2)N(C(C)C)CCO3)cc1OC do in these assays?
hNpr1 antagonist: 5%

What do the screens show for `COc1ccc(C2Cn3nnc(-c4noc(-c5cccc(N(C)C)c5)n4)c3CO2)cc1` (stereo not drawn)?
hNpr1 antagonist: -1%

Results for COCC1CN(C(=O)NCc2cccc(OC)c2)CC12CCNCC2 (stereo not drawn) ?
hNpr1 antagonist: 0%

What do the screens show for `COc1ccc(C2Cn3nnc(C(=O)N4CCN(C(=O)c5cccc(C)c5)CC4)c3CO2)cc1` (stereo not drawn)?
hNpr1 antagonist: 14µM*

How did Cc1ccc2nc(NC(=O)C3CC(=O)N(c4n[nH]c5ccccc45)C3)sc2c1 (stereo not drawn) do in these assays?
hNpr1 antagonist: -1%

How did CN(C)CCCNC(=O)C[C@H]1NC(=O)c2ccccc2NC1=O do in these assays?
hNpr1 antagonist: -2%

What do the screens show for `CCN1c2cc(C(=O)Nc3ccc(C(=O)OC)cc3)ccc2C(=O)N2CCCCCC21` (stereo not drawn)?
hNpr1 antagonist: 0%

How did O=C1COCC2(CN(Cc3ccc4c(c3)CCO4)C2)CN1Cc1ccccc1 do in these assays?
hNpr1 antagonist: -16%[70.6 µM]

How did COCCn1c2c(c(=O)n1-c1ccccc1)CCN(C(=O)COc1ccccc1)C2 do in these assays?
hNpr1 antagonist: -4%[70.6 µM]

How did CN(C)C(=O)C1CN(C(=O)Nc2cccc(C(F)(F)F)c2)CC12CCOCC2 (stereo not drawn) do in these assays?
hNpr1 antagonist: 4%

Results for O=C(C1CCC1)N1CCN(Cc2ccc(=O)n(CC3CC3)c2)CC1 ?
hNpr1 antagonist: 1%

Results for COc1ccc(-c2ccc3ncc(Nc4ccccc4OC)n3n2)cn1 ?
hNpr1 antagonist: -2%[70.6 µM]

How did CC(C)c1ccc(CNC(=O)c2ccc(Cn3ccn4nc5c(c4c3=O)CCCC5)cc2)cc1 do in these assays?
hNpr1 antagonist: -20%

What do the screens show for `COC[C@@H]1CN(C(=O)c2ccc(OC)nc2)C[C@H]1c1ccccn1`?
hNpr1 antagonist: 3%

Results for O=C(N[C@H]1CCN2C(=O)c3cc(/C=C/c4ccccc4)ccc3NC(=O)[C@H]12)C1CCCC1 ?
hNpr1 antagonist: -12%[70.6 µM]

How did CC(c1cccc(-c2cnc(C(=O)O)cn2)c1)N1CCCC1 (stereo not drawn) do in these assays?
hNpr1 antagonist: -3%

How did CC(=O)N1CCCC(c2[nH]ccc2C(=O)NCc2cc(C)nn2C)C1 (stereo not drawn) do in these assays?
hNpr1 antagonist: 3%

How did CN(C)C(=O)N(C)Cc1cccc(C(F)(F)F)c1 do in these assays?
hNpr1 antagonist: -3%[70.6 µM]

What do the screens show for `CCCN1CCC(N2CCC(N3CCC(C(=O)NCc4cccnc4)CC3)CC2)CC1`?
hNpr1 antagonist: 0%

Results for Cn1c(CN2CCN(CCN3CCOCC3)CC2)nnc1C1CC(N)C1 (stereo not drawn) ?
hNpr1 antagonist: 24%

What do the screens show for `Cc1cc2ccccc2nc1-c1cccc(O)c1`?
hNpr1 antagonist: -2%

What do the screens show for `CCc1ocnc1C(=O)NC1CC(c2cc(N3CCC(O)C3)ncn2)C1` (stereo not drawn)?
hNpr1 antagonist: 2%

What do the screens show for `O=C(Cc1cccn1-c1ccc(Cl)cc1)N1CCCC1`?
hNpr1 antagonist: -19%

Results for CCCc1noc(-c2ccn3c(CNC(=O)c4ccc(C)cc4C)nnc3c2)n1 ?
hNpr1 antagonist: -1%

Filtered by structure: the entries above containing a Cl atom
What do the screens show for `O=C(Nc1ccccc1)N1CCc2nc(-c3ccccc3)nc(-c3ccc(Cl)cc3)c2C1`?
hNpr1 antagonist: -8%

How did O=C1[C@H]2CN(Cc3ccc(F)cc3Cl)C[C@H]2C(=O)N1Cc1ccc2c(c1)OCO2 do in these assays?
hNpr1 antagonist: -4%

How did CCc1nc(-c2c3n(c(=O)n(Cc4ccc(Cl)cc4)c2=O)CCCC3)no1 do in these assays?
hNpr1 antagonist: 4%

What do the screens show for `O=C(Cn1cccc1-c1nc(-c2ccc(F)cc2)no1)NCc1ccc(Cl)cc1`?
hNpr1 antagonist: 5%

Results for CCOc1cc(=O)n2c(c1C(=O)Nc1cc(OC)c(Cl)cc1OC)CCCC2 ?
hNpr1 antagonist: -8%

What do the screens show for `Cn1cc(Cl)c(C(=O)N2CCOC(c3ccc(Cl)c(Cl)c3)C2)n1` (stereo not drawn)?
hNpr1 antagonist: inconclusive

What do the screens show for `Cc1oc(-c2cccc(Cl)c2)nc1CN1CCCC(C(N)=O)C1` (stereo not drawn)?
hNpr1 antagonist: -1%

How did CCOc1ccc(C2Cn3nnc(-c4nc(-c5ccccc5Cl)no4)c3CO2)cc1 (stereo not drawn) do in these assays?
hNpr1 antagonist: -11%

What do the screens show for `O=C(Cc1cccn1-c1ccc(Cl)cc1)N1CCCC1`?
hNpr1 antagonist: -19%

These rows are one share of the data (hit frequency here may not be typical).
